# Assay outcomes (PubChem BioAssay)
# Vaccinia mCherry: vaccinia inhibition (mCherry reporter); AID 720579; Vaccinia virus mCherry reporter infection, fluorescence; about a quarter of the inactives have no number; Potency, µM (highest dose often 36.5 µM), without a hit: at the highest dose activity change, negative = inhibition, most hits filed as inhibitors; 310,000 compounds, 0.63% hits; active = well fitted inhibition curve with a large enough effect; inconclusive = small, poorly fitted or top-dose-only effect; inactive = no such curve, though single readings can be large or run the other way; tested in A549 cells; note: nearly all actives have a fitted effect of over 35% in size; inactives centre near -10
# VACV Venus inh: vaccinia inhibition (Venus reporter); Vaccinia virus Venus reporter expression, fluorescence; Potency, µM (series often up to 36.5 µM), inactives show at the highest dose activity change, negative = inhibition, most hits filed as inhibitors; 330,000 compounds, 0.46% hits; AID 720580; active means well fitted inhibition curve with a large enough effect; inconclusive means small, poorly fitted or top-dose-only effect; inactive means no such curve, though single readings can be large or run the other way; tested in A549 cells; note: nearly all actives have a fitted effect of over 30% in size; inactives centre near -10
# * marks the source's active call; other numbers are inactive results; i = inactive; ? = inconclusive; . = not tested or not shown; [ ] = dose if it differs, or a comment. % is set by controls: 0 for no effect and ±100 for the full control effect; potency is the fitted concentration of half-maximal effect.
mol,Vaccinia mCherry,VACV Venus inh
CCc1nc2c(OCc3ccc(OC)cc3)cccn2c1N(C)C(=O)C(C)C,i,-22.4%
CCN(C)C1CN(Cc2cn(Cc3ccccc3)nn2)S(=O)(=O)C1 (stereo not drawn),10.6%,6.8%
CCN1CCN(c2cc(SC(C)C)nc(-c3ccc(OC)cc3)n2)CC1,?,?
CC(=O)c1ccc(OCC(O)CN2CCN(CCN3C(=O)c4cccc5cccc(c45)C3=O)CC2)cc1 (stereo not drawn),?,?
O=C(O)CCC(CNS(=O)(=O)c1ccccc1)C(F)(F)F (stereo not drawn),i,-8.3%
N#Cc1ccc(-c2csc(NNC(=O)c3ccccc3)n2)cc1,?,11.7%
Cc1ccc(S(=O)(=O)n2ccc3c(OCCOCCNCc4ccc(F)cc4)cccc32)cc1,?,?
CCc1c(C)nn(C(=O)/C(C#N)=C\N(C)C)c1C,i,-15.6%
O=C(Cc1ccccc1)Nc1cccc(C(=O)O)c1O,i,-13.9%
COc1cc(C2Nc3cc(Cl)c(S(N)(=O)=O)cc3S(=O)(=O)N2)cc(OC)c1OC (stereo not drawn),-15.9%,-4.6%
CN1CCCN(C(=O)/C=C/c2ccc(F)cc2)CC1,i,-7.3%
CC(=O)NCC(=O)N(C)C(C(=O)Nc1ccc2c(c1)OCCO2)c1ccccc1 (stereo not drawn),-3.5%,3.9%
CN1C2=C(C(=O)CC(C)(C)C2)C(c2cccs2)C2=C1CC(C)(C)CC2=O,-20.7%,-2.2%
COc1ccc(NC(=O)C2C3CCC(O3)C2C(=O)O)c(OC)c1 (stereo not drawn),-27.3%,-10.1%
Cc1cc(NS(=O)(=O)c2ccc(Cl)cc2)nn1CC(=O)NCc1ccco1,.,-27.0%
O=C(Cn1cccc1C(=O)c1ccccc1)NCc1cccnc1,i,-13.5%
Cc1c(NC(=O)Cc2ccccc2)cccc1C(=O)NN1C(=O)c2ccccc2C1=O,i,-10.3%
CCOCCc1nnc(NC(=O)c2cc(OC)c(OC)c(OC)c2)s1,.,-14.5%
CN(C)C1(CNC(=O)Nc2ccccc2)CCCCC1,-2.0%,2.5%
COc1ccc(C2=C(C)C(N3CCC(C(=O)NCc4ccco4)CC3)=NS2(=O)=O)cc1,-20.8%,-17.5%
CCOc1ccccc1C(=O)Nc1cccc(-c2ccc3nncn3n2)c1,-3.4%,-18.3%
CC(=O)Nc1ccc(NC(=O)COc2cccc3ccccc23)cc1,-10.2%,-14.5%
O=C(Nc1ccc(C(=O)N2CCOCC2)cc1)c1cnn2c(C(F)F)cc(-c3ccccc3)nc12,?,?
CCN(CC(=O)NC(=O)NC1CCCC1)Cc1ccccc1,i,-12.5%
C/C(=N/N=C/c1ccc(N(C)C)cc1)c1ccccc1,i,-6.4%
Cc1cc(=O)oc2c(C)c(OC(C)C(=O)NC3CCN(Cc4ccccc4)CC3)ccc12 (stereo not drawn),-3.6%,1.5%
N#CC1=C(N)N(c2ccc(F)cc2)C(=O)C1,-1.8%,-6.7%
O=C(CCn1c(=O)c2ccccc2n(CC(=O)Nc2cccc(F)c2)c1=O)NCCc1ccccc1,-6.2%,7.5%
COc1ccc2c(C)cc(=O)oc2c1C,-8.6%,-6.1%
O=C(CCCSc1nc2ccccc2[nH]1)NCc1ccccc1F,i,-13.0%
Cc1cc(-n2c(SCc3ccccc3F)nc3[nH]ncc3c2=O)ccc1Cl,-13.0%[7.34 µM],-8.3%[7.34 µM]
Cc1c(C(=O)Nc2ccc(F)cc2)sc2nc[nH]c(=O)c12,i,-14.3%
CCOC(=O)Cc1ccc(NC(=O)NCc2cccn2Cc2ccccc2)cc1,-5.8%,-12.7%
Cn1cc(CCC(=O)NC2CC(C)(C)Cc3c2cnn3-c2ccc(F)cc2)cn1 (stereo not drawn),-2.4%,-17.0%
O=C1C2C3C=CC(O3)C2C(=O)N1Nc1ccccc1 (stereo not drawn),i,3.3%
CC1CN(C(=O)COC(=O)c2cc(=O)[nH]c3ccccc23)CC(C)O1 (stereo not drawn),-12.1%,-5.1%
Cn1ccc2c(N3CCCCC3)cc3c(c21)C1CCC3C1 (stereo not drawn),i,-6.5%
Cc1cc(Cl)c2oc(C(=O)NC(C)c3ccncn3)c(C)c2c1 (stereo not drawn),-24.3%,-11.3%
Cc1cccc(NC(=O)CSc2nnc(NC(=O)C3CC3)s2)c1C,9.6%,-1.3%
CCOC(=O)C1=C(COC(=O)/C=C/c2cccc(OC)c2OC)NC(=O)NC1C (stereo not drawn),i,-7.2%
COc1ccccc1CN1C(=O)CN(C2CCCCCC2)C(=O)C1c1ccc(C)cc1 (stereo not drawn),-8.1%,-4.6%
Cc1c(S(=O)(=O)Nc2cc(Cl)ccc2Cl)c(=O)n(C)c(=O)n1C,i,-4.1%
CC(/C=N/Nc1nnc2c(n1)[nH]c1ccccc12)=C\c1ccco1,-14.4%,-5.3%
Cc1ccc(Nc2cc(C)c(O)c(C)c2)cc1,-13.6%,-1.0%
CCOC(=O)N1CCN(C(=O)CN2C(=O)/C(=C\c3cccc(OC)c3)SC2=S)CC1,?,?
COc1ccc(N/N=C(/C#N)S(=O)(=O)c2nsc(C)c2C#N)cc1,.,-11.9%
Cc1nnc(SCC(=O)N2CCc3ccccc3C2)s1,-11.8%,-5.7%
CSc1ccc(Cl)c(C(=O)NC2CCCC2)c1,-6.6%,-16.5%
O=C(Oc1ccnc2cc(Cl)ccc12)N1CCOCC1,-11.4%,-7.1%
COc1ccc(OC)c(NC(=O)c2ccc3c(SCC(=O)O)c4c(nc3c2)CCCC4)c1,-0.8%,-3.9%
Oc1ccccc1C=NNC(=S)NN=Cc1ccccc1O,?,?
CCOc1ccc(CCNC(=O)CCCn2c(=O)c3cccn3c3ccccc32)cc1,-3.8%,-11.9%
COc1ccc(/C=N/N2CCOCC2)cc1Cn1cc([N+](=O)[O-])cn1,-15.2%,-11.0%
O=C(COC(=O)CCc1ccc(S(=O)(=O)N2CCOCC2)cc1)Nc1ccccc1OC(F)F,i,-2.4%
Nc1nc(SCc2ccccc2Cl)c2ncn(C3OC(CO)C(O)C3O)c2n1 (stereo not drawn),i,-3.1%
O=C1c2ccccc2/C(=C\c2ccc3[nH]ccc3c2)N1c1ccccc1,?,-29.7%
CCC(=O)N(Cc1cc(=O)[nH]c2ccccc12)c1ccccc1,-18.0%,-18.7%
CCCNC(=O)C12CCC(C)(C(=O)C1Br)C2(C)C (stereo not drawn),-14.0%,-9.3%
C/C(=N\Nc1ccc(S(N)(=O)=O)cc1[N+](=O)[O-])c1cccs1,-24.3%,-17.3%
Cc1c(C)c2ccc(O[C@@H]3O[C@H](CO)[C@@H](O)[C@H](O)[C@H]3O)c(C)c2oc1=O,i,-9.8%

# Next part.
mol,Vaccinia mCherry,VACV Venus inh
N#C[C@H]1C(O)C(O)c2ccccc2N1C(=O)c1ccccc1 (stereo partly drawn),1.2%,8.0%
CCOc1ccc(-c2nc(C#N)c(NCCCOC)o2)cc1,-5.7%,-1.8%
Cc1nn(C(C)C(=O)O)c(C)c1[N+](=O)[O-] (stereo not drawn),-15.6%,-6.0%
CC(C)CCNC(=O)[C@@H](c1ccccc1)N1Cc2ccccc2C1=O,-2.2%,-0.1%
CN(C)P(=O)(C(Cl)=C(N1CCCCC1)N1CCCCC1)N(C)C,?,-24.6%
O=C(O)c1ccccc1-c1nc2ccccc2[nH]1,-2.7%,-4.4%
CCC(=O)N(CCC(c1ccco1)C(C)C)Cc1ccccc1 (stereo not drawn),-14.9%,-4.6%
O=C(COC(=O)C1CC2C=CC1C2)NCc1ccco1 (stereo not drawn),.,5.5%
O=S(=O)(c1ccc(OCC(O)CN2CCN(c3ccc(F)cc3)CC2)cc1)N1CCOCC1 (stereo not drawn),-8.0%,-23.3%
CCc1ccc(CN(C)C(=O)c2cccc(S(=O)(=O)Nc3ccccc3OC)c2)cc1,-28.9%,-21.5%
COC(=O)Cn1c(=NC(=O)c2ccc(OC)c(OC)c2)sc2cc(OC)ccc21,-12.7%,-10.5%
O=C(Cn1cccc(C(F)(F)F)c1=O)c1ccc(Cl)cc1,-8.2%,-12.3%
O=C(O)CCC1COc2ccccc2O1 (stereo not drawn),i,-2.2%
CCN(CC)C(=O)C1=CC(c2ccc3c(c2)OCO3)=NS(=O)(=O)N1C,0.6%,-1.3%
O=C(Nc1ccc(C(=O)NCc2ccc(F)cc2)cc1)C1=CSCCO1,-8.0%,-11.4%
Cc1ccccc1C1(CC(=O)N2CCOCC2)CC(=O)N(Cc2cccnc2)C1=O (stereo not drawn),-5.5%,0.2%
O=[N+]([O-])c1ccc(N2CCN(c3ccccc3F)CC2)nc1,-12.3%,4.3%
CCc1ccc(-c2cc3c(=O)n(CC(=O)NCCN4CCCCC4C)nc(C)n3n2)cc1 (stereo not drawn),-15.4%,-10.2%
O=C(/C(C=Nc1ccc(Br)cc1)=C(/O)c1ccco1)C(F)(F)F,-26.0%,-11.7%
COc1cc2c(cc1OC)C(c1cccc([N+](=O)[O-])c1)N(C(=O)c1ccccc1C(=O)O)CC2 (stereo not drawn),-8.5%,-10.3%
COCCn1c(C)cc(C(=O)CN2C(=O)C(=O)N(CCC3=CCCCC3)C2=O)c1C,-5.0%,-1.5%
O=C1C(=O)C(c2ccccc2)C(=O)C1c1ccccc1 (stereo not drawn),-10.6%,11.9%
O=C(NCCN1CCN(c2ccccc2F)CC1)C1COc2ccccc2C1 (stereo not drawn),-12.4%,-6.8%
COC(=O)c1cc(C#N)c(NCc2ccc(Cl)cc2Cl)nc1C,.,16.0%
Cc1ccc(CCNC(=O)C2CCCN(S(=O)(=O)N3CC(C)CC(C)C3)C2)cc1 (stereo not drawn),-10.4%[7.34 µM],0.3%[7.34 µM]
COc1ccc(CCNC(=O)c2ccc3c(c2)CCN3S(=O)(=O)c2ccccc2)cc1OC,-15.0%,-9.5%
CCN(CC)c1ncnc2c1ncn2[C@H]1CN(Cc2cccnc2)C[C@@H](CO)O1,-6.9%,-0.8%
CCOc1ccc(C(c2c(C)[nH]n(-c3ccccc3)c2=O)c2c(C)[nH]n(-c3ccccc3)c2=O)cc1OC,-14.8%,-7.8%
Cn1ccnc1SCC(=O)c1cc2ccccc2o1,i,8.9%
Cc1nc2cc(N3CCCCC3)c(NC(=O)c3cccnc3)cc2c(=O)n1Cc1ccccc1,-3.4%,-10.1%
COc1ccc(-c2cnc3c(NC=O)cc(-c4ccc(C(=O)N5CCOCC5)cc4)cn23)cc1OC,-19.3%,?
O=C1NC[C@@H](CCCCN2C[C@H](Cc3ccccc3)N(Cc3ccccc3)C(=O)C2=O)N(CC2CCCCC2)C1=O,-6.1%,-11.4%
FC(F)(F)c1ccccc1-c1ccc2ncnc(NC3CCNCC3)c2c1,?,?
COC(=O)[C@@]12C[C@@H](CC(=O)N3CCCCC3)C(=O)N(Cc3ccc4c(c3)OCO4)C1=CCC(C)(C)C2,i,-19.4%
CCn1c2c(c(=O)n3ncc(C(=O)N4CCN(c5ccccc5)CC4)c13)CN(Cc1ccc(OC)cc1)CC2,-9.2%[7.34 µM],-2.7%[7.34 µM]
COc1cccc(CSc2nc3ccccc3c3nc(CCn4c(C)nc5ccccc54)nn23)c1,-10.4%,-12.0%
CCc1cc(=O)oc2c(C)c(OCC(=O)NCCN3CCOCC3)ccc12,-15.6%[7.34 µM],-3.3%[7.34 µM]
CC(=NCc1cccnc1)C1=C(O)c2ccccc2C1=O,-8.4%,-13.1%
COc1cccc(NC(=O)CN(C)C(=O)c2ccc(COc3ccccc3)cc2)c1,-20.9%,-19.1%
CC(=O)CSc1cc(C)nc2c(-c3ccccc3)c(C)nn12,-14.5%,15.2%
C=C(C1=CCN(S(=O)C(C)(C)C)[C@H]1CCO)c1ccccc1 (stereo partly drawn),?,?
CCCCCC1CC(CC#CCN2CCOCC2)C(=O)O1 (stereo not drawn),-13.8%,-4.9%
CC(=O)c1c(N2CCN(C)CC2)nc(=S)n(Cc2ccccc2)c1C,i,3.4%
O=C(CSc1ncn[nH]1)Nc1nnc(-c2ccccc2)s1,-8.6%,-17.8%
COc1cccc(CC(=O)N(C)C2CCCN(Cc3ccccc3F)C2)c1 (stereo not drawn),-5.9%,-5.7%
CC(C)CN1C(=O)/C(=C/c2ccco2)NC1=S,-3.5%,16.9%
C[C@H](CO)N1C[C@H](C)[C@@H](CN(C)Cc2ccccc2C(=O)O)OCc2cnnn2CCCC1=O,i,-1.5%
COC(=O)c1c(C)cccc1C1CN=NC12Cc1ccccc1C2=O (stereo not drawn),?,-14.7%
Cn1c(=O)oc2cc(S(=O)(=O)NCCC(=O)Nc3ccc(F)c(Cl)c3)ccc21,-4.3%,0.5%
CCOc1cc(NC(=S)N2CCC(C(N)=O)CC2)c(C(=O)OC)cc1OCC,-0.1%,-13.0%

# Entries above that have a thiophene ring, fused or not:
mol,Vaccinia mCherry,VACV Venus inh
CN1C2=C(C(=O)CC(C)(C)C2)C(c2cccs2)C2=C1CC(C)(C)CC2=O,-20.7%,-2.2%
Cc1c(C(=O)Nc2ccc(F)cc2)sc2nc[nH]c(=O)c12,i,-14.3%
C/C(=N\Nc1ccc(S(N)(=O)=O)cc1[N+](=O)[O-])c1cccs1,-24.3%,-17.3%
